UUG fidelity – modulators of start codon recognition fidelity in yeast; S. cerevisiae UUG-firefly luciferase reporter, luminescence/redox ratio; activity score, % at 18.7 µM; 0.13% of 350,000 active;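 active = replicate mean at a twofold rise or more, about +100% in these data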;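 also: firefly luciferase made from a UUG start codon reports start codon fidelity; reporter light over untreated wells divided by growth signal over untreated wells; some hits fall short of that in this replicate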
PABP FP inh – PABP-poly(A) binding inhibition; P11940; PABP-poly(A) RNA binding, fluorescence polarization; inhibition, % at 35 µM; 1% of 290,000 active;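 active = 50% or more with normal probe brightness, or confirmed in later tests; inconclusive = above 50% with abnormal brightness, or retests that disagree; inactive = below 50% or failed in later tests; about a fifth of its hits are not listed in these tables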;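 also: calls also rest on retests at 20 µM and on dose response follow-up; controls were probe without protein and protein plus probe with vehicle; some compounds called inactive have numbers as strong as hits; many hits fall short of the cut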
Target sequence (P11940 whole entry, looked up): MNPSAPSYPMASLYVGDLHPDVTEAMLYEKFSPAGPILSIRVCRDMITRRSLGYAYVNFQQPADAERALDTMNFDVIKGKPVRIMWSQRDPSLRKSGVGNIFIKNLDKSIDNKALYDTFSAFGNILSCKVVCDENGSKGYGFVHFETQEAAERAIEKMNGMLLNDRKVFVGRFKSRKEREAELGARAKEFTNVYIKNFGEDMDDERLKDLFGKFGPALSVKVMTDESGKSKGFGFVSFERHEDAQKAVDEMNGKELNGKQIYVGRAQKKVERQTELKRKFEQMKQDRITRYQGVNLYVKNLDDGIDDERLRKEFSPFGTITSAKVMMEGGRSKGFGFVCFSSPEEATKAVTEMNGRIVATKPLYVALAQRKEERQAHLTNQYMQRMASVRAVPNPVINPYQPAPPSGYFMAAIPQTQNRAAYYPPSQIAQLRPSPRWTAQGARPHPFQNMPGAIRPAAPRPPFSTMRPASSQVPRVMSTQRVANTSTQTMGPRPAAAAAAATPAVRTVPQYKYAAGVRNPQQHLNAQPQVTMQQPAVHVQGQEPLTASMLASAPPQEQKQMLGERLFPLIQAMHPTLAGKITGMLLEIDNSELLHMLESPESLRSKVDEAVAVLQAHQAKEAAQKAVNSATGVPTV
CSC inhib – blocks cancer stem cells; cancer stem cell-like cells viability, luminescence; inhibition, % at 7.5 µM; 1.1% of 300,000 active; AID 2717;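 active = mean at 75% or more and at least half the replicates too; inconclusive = mean and replicates disagree; tested in HMLE shEcad cells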;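 also: 0% = median of negative and 100% = median of positive control wells; the first replicate is given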
MT1-MMP act inh – inhibitors of human MT1-MMP activation; HT1080 RFP-PRO-GFP cells, GFP/RFP ratio fluorescence, overnight; percent of plate control window, DMSO zero; GFP/RFP ratio change, % at 20 µM; 0.061% of 360,000 active; AID 651647;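 active = GFP/RFP ratio change of at least 30% with cell ATP level not reduced by more than half and red fluorescence within 50% of control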; also: strong numbers were not always called active
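Read-out: GFP/RFP fluorescence ratio; Test system: RFP-PRO-GFP reporter HT1080 cells; Compound dosing: single-point 20 µM compound, 1% DMSO; Times: overnight compound exposure at 37 °C.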
Rce1 inhib – inhibitors of yeast Ras-converting enzyme; Q03530; yeast membranes, quenched prenylated peptide cleavage fluorescence; calls only; 0.27% of 290,000 active;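 active = fall in fluorescence gain of 50% or more versus controls, with final raw signal at or below 3038400; inconclusive = same 50% fall but final raw signal above 3038400; inactive = fall in fluorescence gain under 50%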;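 also: plate controls were neutral control wells for no effect and wells lacking membranes for full effect; tested at 10 µM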
Env fusion inh – blocks HIV Env-driven cell-cell fusion; HeLa-JRFL Env/CEM21 cell fusion, luciferase; inhibition, % at 12.3 µM; 1.1% of 360,000 active;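 active = mean replicate inhibition score of at least 50 and every replicate individually at or above 50; inconclusive = only one of the two criteria met; inactive = mean below 50 and not all replicates reaching 50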;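 also: 0% = plate neutral controls and 100% = maraviroc near 300 nM; one replicate is shown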
eIF4H inh – inhibitors of RNA binding by human eIF4H; Q15056; eIF4H fluorescence polarization binding assay; inhibition, % at 35 µM; 0.94% of 290,000 active; AID 2012;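 active = 50% or more with normal probe brightness, or confirmed in later tests; inconclusive = above 50% with abnormal brightness, or retests that disagree; inactive = below 50% or failed in later tests; about a fifth of its hits are not listed in these tables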;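 also: calls also rest on retests at 20 µM and on dose response follow-up; 0% = protein and probe with vehicle and 100% = probe without protein; strong numbers were not always called active; many hits fall short of the cut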
eIF4H inh retest – recorded beside eIF4H inh, whose call it bears; inhibition, %; compound at 20 µM; confirmation average;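 mean of two retest wells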
PABP FP inh retest – also measured in PABP FP inh; calls as there; inhibition, %; compound at 20 µM; confirmation repeats;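 mean of two retest wells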
MT1-MMP act inh RFP – second read-out of MT1-MMP act inh, no call of its own (marks repeat the call); RFP signal change, %; measured here: RFP expression control read;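 0 = vehicle wells; hits needed this value within 50% of zero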
An asterisk follows results filed as active; i = inactive; ? = inconclusive; nt = not tested or not shown.

SMILES	UUG fidelity	PABP FP inh	CSC inhib	MT1-MMP act inh	MT1-MMP act inh RFP	Rce1 inhib	Env fusion inh	eIF4H inh	others
CCn1nc(NC(=O)CC(C)C)c2cc3ccc(C)cc3nc21	-15	18	nt	-4	-2	i	25	2
CC(=O)NCCc1cc2ccc(C)cc2[nH]c1=O	nt	-7	-7	0	0	i	nt	-11
O=C(NCCn1cccn1)C1CCC(=O)N(CCc2ccc(Cl)cc2)C1 (stereo not given)	0	7	nt	-1	3	i	-8	-3
O=C(CN1C(=O)NC2(CCCC2)C1=O)OCCOc1cccc(Br)c1	nt	nt	31	2	-4	i	-1	nt
CC(Sc1nc(-c2ccccc2)cc(=O)[nH]1)C(=O)O (stereo not given)	nt	19	-2	-1	4	i	20	4
O=C(Nc1ccc(Cl)cc1)C1CCCN(c2ncnc3c2nc2n3CCCCC2)C1 (stereo not given)	-8	14	48	5	-9	i	6	-4
COC(=O)c1ccc(NC(=O)Nc2ccc3c(c2)nc(C)n3C)cc1	-12	-13	-17	4	-6	i	-23	-19
CCCN1CCN(C(=O)CCCn2c(C)c3cnn(-c4ccccc4)c(=O)c3c2C)CC1	-13	-9	-9	1	1	i	2	1
CCCN(CCC)S(=O)(=O)c1ccc(NC(=O)C2CCCO2)cc1 (stereo not given)	-26	4	-16	-1	6	i	nt	9
CC(C)n1nc(C(=O)NCc2ccc3c(c2)OCO3)c2ccccc2c1=O	nt	10	1	1	0	i	13	-3
Cc1ccc(NS(=O)(=O)c2ccc(CCC(=O)NC3CC3)cc2)cc1	-7	-1	-8	-7	-1	i	-24	0
CC(=O)/C(CN1CCCCC1)=N\O	-11	9	-4	2	1	i	-53	0
O=C(NC1CCCCC1)c1ccc(CS(=O)(=O)Cc2ccccc2F)o1	7	-2	5	-4	-6	i	nt	3
COc1ccc(Nc2nccc(-c3ccc(C#N)cc3)n2)cc1	-11	0	3	-15	-9	i	-10	-3
CCC(NC(=O)C1CCC1)c1ccccc1 (stereo not given)	-22	-7	-7	2	0	i	-76	5
CCOc1ccccc1C(=O)NCC(=O)NCCCSc1ccccc1	-14	12	nt	-1	0	i	-4	-8
COc1cc(OC)c(C(=O)NC2CCCc3ccccc32)cc1OC (stereo not given)	-7	5	6	2	3	i	2	-10
CCC(=O)NNC(=O)CSc1nnc(-c2ccccc2)c(-c2ccccc2)n1	-6	-8	1	-2	2	i	-2	1
COC(C/C=C/C(=O)[C@@H](C)OCc1ccccc1)OC	-20	nt	-4	0	-2	i	-2	nt
COc1ccccc1CNCC(=O)Nc1ccc(N(C)C)cc1	-4	2	-3	4	2	i	-5	-2
C[C@@H]1CC=C[C@@H]2[C@H]1C(=O)N(Cc1ccccc1)[C@H]2c1ccccc1Br	-7	nt	nt	-4	-10	nt	3	nt
CCOC(=O)C1(C)C=C(Nc2cccc(OC)c2)C(=O)N1c1ccccc1 (stereo not given)	-2	1	11	1	-1	i	3	4
Cc1cccc2nc(CSc3ccc(Cl)cc3)cn12	-13	-7	nt	3	2	i	3	-4
Cc1cc(C)cc(C(=O)NCC(=O)OCC(=O)NC2CCCc3ccccc32)c1 (stereo not given)	-9	nt	nt	-4	-2	nt	1	nt
Cc1ccoc1C(=O)N1CCN(C(=O)c2occc2C)CC1	-3	3	-4	5	6	i	0	2
COc1ccc(C2=NN(C(=O)CSc3nnc(C)c(=O)n3N)C(c3ccco3)C2)cc1 (stereo not given)	nt	-4	-2	2	2	i	-7	3
CCC12CN3CC(CC)(CN(C1)C3c1ccc([N+](=O)[O-])o1)C2=O (stereo not given)	nt	-1	-11	1	4	i	16	-17
CCOc1ccc(NC(=O)C2Cc3ccccc3CN2S(=O)(=O)CC)cc1 (stereo not given)	-7	-3	-6	-1	4	i	-2	-7
Cc1ccc(SCc2ccc(C(=O)Nc3cccc([N+](=O)[O-])c3)cc2)cc1	-7	-8	13	0	-4	i	nt	-6
COc1ccc(C(=O)Nc2sc3c(c2C(=O)O)CC(C)(C)OC3)cc1	-7	-2	51	-5	-1	i	13	7
Cc1ccc(-c2nn(-c3ccccc3)cc2/C=C2\SC(=S)N(CC(=O)O)C2=O)cc1	527*	16	55	2	1	i	1	1
CC(=O)c1cccc(NC(=O)c2cc(=O)c3ccccc3o2)c1	-5	-4	-6	-3	-5	nt	-11	4
Cc1ccccc1-n1cc(CNC(=O)C2CCC(=O)N(C3CC3)C2)cn1 (stereo not given)	-10	-11	-8	6	2	i	6	4
CCC(=O)Nc1cc(-c2nn(C)c(=O)c3ccccc23)ccc1N1CCOCC1	nt	5	-9	4	5	i	5	-7
Cc1cc(C(C)(C)C)cc(C)c1C(=O)O	nt	4	-9	1	2	i	-6	-6
O=C(CCNC(=O)c1ccco1)Nc1ccc(OC(F)F)c(Cl)c1	-16	-8	-9	5	5	nt	-29	-2
COCCNC(=O)C(=O)NCC1OCCN1S(=O)(=O)c1cc(F)ccc1F (stereo not given)	-4	-1	-11	-4	-2	i	-18	-2
COc1ccc(NC(=O)c2cc(C3CCCCN3C(=O)CCCc3ccccc3)on2)c(C)c1 (stereo not given)	-29	nt	nt	-6	-9	nt	-4	nt
Cc1cnn(C(=S)NCc2ccc(Cl)cc2)c1	nt	4	0	nt	nt	i	-46	-8
O=C(Cn1c(=O)c2c(ncn2Cc2ccccc2)n(Cc2ccccc2)c1=O)N1CCCC1	0	13	-6	-2	-5	i	nt	0
CCC(CC)C(=O)c1c[nH]c(C(=O)OC)c1	-15	-5	13	-4	-2	i	-5	-4
Cc1ccc2c(C)c(C(=O)NCC3CCOCC3)oc2c1C	-9	nt	nt	-1	-2	nt	-4	nt
N#C/C(=C\Nc1ccc(F)c(Cl)c1)S(=O)(=O)c1ccccn1	-10	-3	-16	0	1	i	1	-13
Cc1ccc(NC(=O)CN(C)C(=O)c2cc(-c3cccs3)nn2-c2ccccc2)cc1	5	nt	nt	-2	-5	nt	16	nt
COc1cc(C(=O)NCCNC(=O)c2ccc(C)nc2)cc(OC)c1OC	-13	5	0	1	0	i	-6	-8
Cc1ccc(-n2c(Cc3cccs3)nnc2SCC(N)=O)cc1	nt	-4	-17	6	2	i	nt	0
O=C(NCC(c1cccnc1)N1CCN(c2ccc(F)cc2)CC1)C1CCCCC1 (stereo not given)	-24	4	2	2	-1	i	nt	-2
Cc1ccccc1C(=O)NC1CCN(Cc2nnnn2Cc2ccccc2)CC1	-8	3	-3	0	3	i	-19	6
CN1CCN(c2ccc(CNC(=O)c3ccco3)cc2)CC1	nt	-13	10	-3	-2	i	-4	3
CCN(C(=O)CSc1nnc(-c2ccccc2C)n1C)c1c(N)n(Cc2ccccc2)c(=O)[nH]c1=O	-11	nt	nt	1	0	nt	-21	nt
CCCc1nc2c(=O)n(C)c(=O)nc-2n(C)n1	-13	0	nt	-25	-34	nt	69*	2
CN1CCC(=NNC(=O)CN(c2cccc(Cl)c2)S(C)(=O)=O)CC1	nt	-5	-8	4	4	i	-9	7
COc1cc(C(=O)NC2CCCc3ccccc32)cc(OC)c1OC (stereo not given)	-12	-2	-13	5	5	i	-13	3
C=Cn1cc[n+](CC(=O)c2ccc(Br)cc2)c1	-6	-5	-10	-1	-1	i	-26	-7
CCOc1ccc(/C=N\NC(=O)c2c(C)nc3cc(C)ccn23)cc1	-17	-5	0	1	2	i	-6	-8
CCN(CC)C1=CC(=[N+]2CCCC2)CC(C)(C)C1	-18	7	13	-15	-25	i	?	-10
CC(C)c1nnc(NC(=O)CCC(=O)N2CCN(c3ccc(Cl)cc3)CC2)s1	-1	9	-21	-3	-5	i	9	-5
O=S(=O)(Nc1ccccc1F)c1ccc2nsnc2c1	-3	4	-3	-4	-1	i	nt	0
Cc1ccc(-n2c(C)cc(C(=S)N3CCOCC3)c2C)cc1C	-23	-5	9	-2	0	i	6	32
COc1cc(-c2cc(C(=O)NCCc3ccc(S(N)(=O)=O)cc3)c3ccccc3n2)cc(OC)c1OC	22	4	-8	0	-2	i	15	-7

By substructure: those above containing bromine.
SMILES	UUG fidelity	PABP FP inh	CSC inhib	MT1-MMP act inh	MT1-MMP act inh RFP	Rce1 inhib	Env fusion inh	eIF4H inh	others
O=C(CN1C(=O)NC2(CCCC2)C1=O)OCCOc1cccc(Br)c1	nt	nt	31	2	-4	i	-1	nt
C[C@@H]1CC=C[C@@H]2[C@H]1C(=O)N(Cc1ccccc1)[C@H]2c1ccccc1Br	-7	nt	nt	-4	-10	nt	3	nt
C=Cn1cc[n+](CC(=O)c2ccc(Br)cc2)c1	-6	-5	-10	-1	-1	i	-26	-7

Following part.
SMILES	UUG fidelity	PABP FP inh	CSC inhib	MT1-MMP act inh	MT1-MMP act inh RFP	Rce1 inhib	Env fusion inh	eIF4H inh	others
CCOc1ccc(N(CC(=O)Nc2ccccc2C(=O)NCc2ccco2)S(C)(=O)=O)cc1	-4	-4	-6	3	-1	i	11	-22
O=C(/C=C/c1ccc(F)cc1)NCCCN1CCN(CCCNC(=O)/C=C/c2ccc(F)cc2)CC1	nt	-1	7	2	2	i	nt	1
O=C(Nc1cc(S(=O)(=O)N2CCOCC2)ccc1N1CCOCC1)c1cc(=O)[nH]c2ccccc12	nt	-7	-7	0	1	i	13	-5
CCCNC1=C(C)C(=O)CC1	-19	10	-8	0	4	i	nt	6
CCN(CC)C(=O)CSc1nc2c(sc(=S)n2-c2ccc(C)cc2C)c(=O)[nH]1	-15	4	nt	5	12	i	6	-8
Cc1ccc(-c2nnc(SCC(=O)N3CCCC3)o2)cc1	nt	1	-16	-2	2	i	nt	4
CCOC(=O)c1ccc(N2C(=O)CC(N3CCN(C(=O)c4ccco4)CC3)C2=O)cc1 (stereo not given)	-15	9	-1	-7	-1	i	nt	2
C/C(CC(=O)NCc1ccccc1Cl)=N/NC(=O)c1ccccn1	-15	7	-7	0	6	i	-10	11
C[N+]1(CC#CC(O)(c2ccccc2)c2ccccc2)CCCC1	nt	-7	-11	-1	2	i	-37	2
CC/C(=N\NC(=O)c1ccc(-c2ccccc2)cc1)C12CC3CC(CC(C3)C1)C2	-7	2	30	-2	3	i	nt	0
COc1ccccc1CNC(=O)CCC(=O)Nc1nnc(C)s1	38	0	nt	7	4	i	-54	7
COc1ccc(CCNCc2ccccc2N2CCCC2)cc1	-6	5	-5	2	0	i	4	17
Cc1nc(SCC(=O)NCC(F)(F)F)c2c(-c3cccs3)csc2n1	nt	1	1	0	-8	i	6	-7
Cc1ccc2c(ccc(=S)n2C)c1	1	4	5	6	4	i	-14	-2
CCN(CC)C(=O)Cn1cc(S(=O)(=O)CC(=O)Nc2cccc(NC(C)=O)c2)c2ccccc21	-1	nt	nt	0	1	nt	22	nt
NC(Cc1ccc(C(F)(F)F)cc1)c1csc(Nc2nncc3ccccc23)n1 (stereo not given)	-14	nt	nt	-14	-7	nt	4	nt
CCN(CC)CCNc1nc2c(c(=O)n(C)c(=O)n2C)n1C/C=C(/C)Cl	36	-1	-1	-2	-3	i	nt	-4
O=C(CN1C(=O)S/C(=C\c2ccccc2)C1=O)NNC(=O)c1ccccc1O	nt	97*	15	6	6	i	-60	7.4*	eIF4H inh retest=101*;PABP FP inh retest=75*
C=CCn1c(SCC(=O)Nc2ccc(Br)cc2)nc(O)cc1=O	-26	nt	nt	-7	0	nt	13	nt
O=C1N[C@@H](c2ccccc2)COC(=O)[C@H](Cc2ccc(F)cc2)C/C=C\C[C@H]1CC(=O)N(CCO)Cc1ccccc1	-21	nt	nt	0	1	nt	-38	nt

An unsorted share of the library; about 2.9% have a hit in one of these screens.
